# RanGTP-Imp inh = inhibitors of RanGTP-importin-beta interaction, primary screen, biochemical, FRET, CFP-Ran, YFP-importin-beta, homogeneous; Ran GTPase (GTP-bound) - importin-beta complex; cell-free CFP-Ran/YFP-importin-beta FRET ratio; inhibition, % (test concentration not listed); hit rate 1.1% among 300,000;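 active means most replicates above 15%; inconclusive means exactly half above 15%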;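 further: 0% = DMSO wells and 100% = Ran loaded with GDP instead of GTP; wells of about 40 µL received 100 nL stock; the first replicate is given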
# Beta apoptosis = inhibitors of cytokine-induced beta cell apoptosis, primary screen, luminescence; INS-1E cytokine-induced death, ATP luminescence, 48 h; percent of positive-control rescue, neutral wells zero; protection from apoptosis, % (concentration not given with the values); hit rate 0.8% among 300,000;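 active means all replicates at 75% or more, or half of them and the mean; inconclusive means half reach 75% but not the mean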;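 further: 0% = cytokine-treated negative control wells and 100% = positive control rescue; higher means more ATP so stronger rescue from cytokine killing; wells of about 40 µL received 100 nL stock; the first replicate is given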
# Calb FLC = C. albicans growth inhibition with fluconazole, primary screen, CaCi-2 strain, Alamar Blue fluorescence | C. albicans CaCi-2 (fluconazole-resistant clinical isolate) + fluconazole, 48 h | growth inhibition, % (no concentration beside the values) | hit rate 0.57% among 300,000;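 active means most replicates above 75%; inconclusive means exactly half above 75%; inactive means most below 75%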;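 further: all wells also contain fluconazole at 8 µg/ml as a sub-toxic cotreatment; 0% = median of DMSO wells and 100% = median of geldanamycin control wells; wells of about 8 µL received 7.5 nL stock; the first replicate is given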
# Bfl-1 A1 inh = caspase 3/7 activation in MEF A1-2A-BIM cells, primary screen, A1 inhibitor project, cell-based, luminescence, HTS | Caspase-Glo 3/7 luminescence, 3 h; percent of clofoctol response, vehicle zero | caspase activation, % (no concentration beside the values) | hit rate 0.066% among 330,000 | AID 2462, 2010;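 active means over half of replicate activation scores above 10%, or exactly half above 10 with the replicate mean above 10; inconclusive means replicate mean below 10 yet half the replicates above 10; inactive means over half of replicates below 10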;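 further: wells of about 30 µL received 50 nL stock; many hits fall short of the cut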
# T cruzi repl = inhibitors of intracellular T. cruzi growth, primary screen, luminescence, NIH3T3 host cells | inhibition, % (concentration not given with the values) | T. cruzi beta-gal in NIH3T3, 90 h | hit rate 1.4% among 300,000 | AID 1885, 2009;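 active means mean inhibition across valid replicates above about 55%, limit read from the data; inconclusive means mean below that limit but half or more replicates reach it; inactive means mean below it, under half of replicates reach it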;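 further: signal also drops with host cell toxicity which is not excluded here; 0% = plate median of DMSO wells and 100% = zero luminescence signal; higher percent means less beta-gal luminescence so fewer parasites; stock transfer was 50 nL into about 50 µL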
# Vif TR-FRET = inhibitors of Vif binding to APOBEC3G peptide, primary screen, biochemical, TR-FRET, GST-Vif 1-94, biotin-A3G peptide, dose response retest (AID 1117319) | Virion infectivity factor (Human immunodeficiency virus type 1 group M subtype B (isolate … | TR-FRET GST-Vif / biotin-A3G peptide binding; higher % means a stronger effect; test concentration not given here; strong numbers were not always called active | one-dose inhibition, %; IC50 in µM for titrated hits | hit rate 0.57% among 260,000;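 active means above the screen mean plus three standard deviations and confirmed in dose response; inconclusive means results disagree or hit not tested in dose response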;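 further: Vif residues 1-94 fused to GST binding biotinylated APOBEC3G peptide 110-148; 0% = full assay without inhibitor and 100% = GST in place of GST-Vif; retest series ran down from 100 µM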
# MLL AF4-AF9 inh = inhibitors of AF4 peptide binding to AF9, primary screen, biochemical, AlphaScreen, biotin-AF4 peptide, FLAG-AF9, single point; Protein AF-9 (Homo sapiens), P42568; inhibition, % at 10 µM; hit rate 0.47% among 350,000;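 active means every replicate reaching a set inhibition limit, whatever the replicate mean, cut at about 25% in these data; inconclusive means mean inhibition reaches that limit but some replicates miss it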;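 further: 0% = plate neutral control median and 100% = total signal loss; the record names both 10 and 1 µM as test concentration; the first replicate is given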
# Target sequence (P42568 whole entry, looked up): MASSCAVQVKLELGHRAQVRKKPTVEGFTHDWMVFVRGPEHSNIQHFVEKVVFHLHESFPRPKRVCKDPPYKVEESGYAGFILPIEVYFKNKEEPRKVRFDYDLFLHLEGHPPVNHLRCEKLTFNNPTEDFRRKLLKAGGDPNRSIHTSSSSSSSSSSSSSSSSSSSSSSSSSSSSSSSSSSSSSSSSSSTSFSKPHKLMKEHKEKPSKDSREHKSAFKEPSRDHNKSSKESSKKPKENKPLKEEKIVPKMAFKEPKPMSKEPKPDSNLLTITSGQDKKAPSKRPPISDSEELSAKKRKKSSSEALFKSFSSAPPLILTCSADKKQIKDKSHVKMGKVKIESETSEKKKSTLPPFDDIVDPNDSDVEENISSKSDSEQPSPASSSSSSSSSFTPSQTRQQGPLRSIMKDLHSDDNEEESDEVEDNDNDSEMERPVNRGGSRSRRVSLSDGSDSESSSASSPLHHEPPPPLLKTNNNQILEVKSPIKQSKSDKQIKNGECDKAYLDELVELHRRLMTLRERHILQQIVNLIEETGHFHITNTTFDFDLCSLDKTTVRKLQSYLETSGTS
# Ecoli rRNA inh = reduced GFP signal of wild-type E. coli, primary screen, bacterial rRNA inhibitor project, GFP/RFP fluorescence, OD600, single point. E. coli WT GFP vs humanized-ribosome RFP mutants, 24 h; stronger effect = lower value; DMSO median 0, no signal -100. hit rate 1.6% among 350,000. GFP signal change (wild-type ribosome), % (no concentration beside the values);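 active means significant combined selectivity score with lowered wild-type GFP, culture density cut under 30%, mutant RFP and density less affected; inactive means any of these conditions unmet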; further: one replicate is shown; some compounds called inactive have numbers as strong as hits
# Ecoli rRNA inh OD600 = second read-out of Ecoli rRNA inh, no call of its own (marks repeat the call); OD600 change, %; measured here: OD600 growth;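 optical density of the mix in the first replicate; 0 = DMSO median and -100 = no signal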
# Ecoli rRNA inh RFP = further read-out of Ecoli rRNA inh, marked with its call; RFP signal change, %; measured here: RFP humanized mutant strains;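 first replicate; 0 = DMSO median and -100 = no signal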
# An asterisk follows results filed as active; ? = inconclusive; / = no result given. The list is partial (hit frequency here may not be typical).
SMILES,RanGTP-Imp inh,Beta apoptosis,Calb FLC,Bfl-1 A1 inh,T cruzi repl,Vif TR-FRET,MLL AF4-AF9 inh,Ecoli rRNA inh,Ecoli rRNA inh OD600,Ecoli rRNA inh RFP
O=C(CNc1cccc2ccccc12)N/N=C/c1cccc(Oc2ccccc2)c1,1.2,-3,17,-2.2,32,/,9.8,-6,-4,1.1
CCN(C(=O)c1cc(Cl)ccc1OC)c1ccccc1C,6.4,-1,-7,0.0,0,-6%,/,/,/,/
CCC(C)NC(=O)C1CCN(S(=O)(=O)c2ccc3nc4c(c(C(=O)O)c3c2)CCCCC4)CC1 (stereo not given),-1.9,-1,-6,0.0,-4,/,1.0,12,0,2.1
N#Cc1cc2ccccc2nc1SCc1ccccn1,/,3,43,-0.1,-2,21%,/,/,/,/
CCNC(=O)CCn1nc(-c2ccc(C)cc2)c2ccccc2c1=O,-3.3,-5,-2,0.9,-1,-3%,-2.2,-4,-8,-2.7
Oc1cnc2ccccc2c1CN1CCOCC1,9.4,-6,2,0.2,5,18%,/,/,/,/
O=C(Cn1c2c(sc1=O)C1c3ccccc3OCC1CS2)Nc1ccc(Cl)c(Cl)c1 (stereo not given),2.6,0,-12,0.0,17,5%,-3.3,-23,-12,13
O=C(CSc1nnc(NC(=O)c2ccco2)s1)NC1CCCC1,1.3,-7,-8,0.3,1,26%,/,/,/,/
Cc1cccnc1NC(=O)C1CCCN1S(=O)(=O)c1ccc(Cl)cc1 (stereo not given),-0.2,-9,-2,-0.1,6,/,0.0,1,-3,-2.2
COc1ccccc1CNC(=O)COC(=O)Cc1c(Cl)cccc1Cl,0.4,-6,-9,-0.4,-4,/,1.9,-9,-13,-0.1
CCc1ccccc1NC(=O)N1C2CCCC1CC(NC(=O)C(C)(C)C)C2 (stereo not given),2.5,-1,?,0.0,-6,-3%,/,/,/,/
Cc1ccnc(N2CCC(C(=O)NCc3ccc(F)cc3)CC2)n1,6.3,4,-22,-1.5,6,-13%,-0.7,6,-5,-3.8
COc1ccccc1OCCCC(=O)Nc1ccc(N2CCOCC2)cc1,-2.5,0,-6,0.2,3,/,-0.1,12,12,4.9
C=C[C@H](CC(C)C)N(Cc1ccccc1)S(=O)(=O)N(Cc1ccc(OC)cc1)[C@H](C=C)CC(C)C,/,115*,/,1.6,/,/,-6.7,7,1,-8.5
CCn1ncc(-c2ccnc3cc(C(=O)O)nn23)c1C,-9.5,-12,4,0.2,8,/,-2.9,22,10,-3.5
CC(C)(C)CC(=O)NC(=S)NCc1ccco1,3.9,4,-14,-0.9,2,1%,-2.0,-4,-7,-2.2
COCCCn1[nH]c2c3c(ccc2c1=O)C(=O)c1ccccc1C3=O,4.9,55,9,0.1,-17,30%,/,/,/,/
O=c1c2cc(O)c(O)cc2oc2cc(O)c(C3OC(CO)C(O)C(O)C3O)c(O)c12 (stereo not given),-40,0,-3,0.2,-20,/,-4.8,/,/,/
O=C(NC1CCC(O)CC1)c1ccccc1OCc1ccc(F)cc1 (stereo not given),1.1,/,-6,0.2,-2,/,-5.2,0,-2,0.7
COc1ccc(-c2cc(-c3c(O)c(OC)c4occc4c3OC)[nH]n2)cc1,-1.3,/,102*,0.1,7,21%,/,/,/,/
c1cncc(-c2noc(-c3cccc4ccccc34)n2)c1,2.1,-3,10,-1.5,-28,?,3.5,5,5,-1.0
Cc1nc(C(=O)Nc2ccccc2)sc1C1(C)CC(c2cccc([N+](=O)[O-])c2)=NO1 (stereo not given),-5.6,3,-18,-0.3,50,5%,4.6,-5,-6,-1.0
CCc1nc(C)ccc1OCC(=O)N(CC)CC,-1.0,-11,10,1.1,-16,14%,/,/,/,/
COCCC(=O)Nc1c(-c2ccccc2)c2cc(Br)ccc2[nH]c1=O,2.7,-6,3,0.8,-9,-7%,1.1,-2,-5,2.0
Cn1nc(C(=O)Nc2ccccc2Cl)cc1C(=O)Nc1ccccc1Cl,-0.2,-4,0,0.4,-18,/,0.5,-5,2,0.0
OCCC1CN(Cc2ccc3cccc(F)c3n2)CCN1Cc1ccccc1 (stereo not given),2.3,/,-5,-0.3,11,/,2.2,10,11,6.3
O=C(NCCc1ccccc1)c1ccc2c(c1)OCO2,-4.2,0,-7,-6.0,-2,/,1.8,0,10,-1.9
COc1ccc(NC(=O)CSc2nc(N)c(NC(=O)c3cccs3)c(=O)[nH]2)cc1,?,-5,0,-1.0,-24,-9%,-2.3,8,2,-7.7
O=C(N/N=C/c1ccc2c(c1)OCO2)c1ccc(COc2cccc3cccnc23)cc1,0.5,3,-2,-0.7,-20,0%,-2.2,1,3,-5.8
COc1ccc(OCCOCCN2CCN(C)CC2)cc1,0.2,1,-16,0.3,23,-2%,-16,10,12,0.7
O=C(CN(Cc1ccccc1)C(=O)c1cc2c(s1)CCC2)NCc1cccs1,-3.0,/,-45,1.0,17,-7%,/,/,/,/
CSCC[C@H](NC(=O)N1CCn2c1nc1ccccc12)C(=O)NCc1ccccc1,4.1,-6,0,1.1,11,/,1.7,-13,-14,4.2
O=S(=O)(NCCN1CCOCC1)c1ccc(Oc2ccccc2Cl)cc1,0.3,5,-3,-0.5,2,/,-2.2,/,/,/
COc1ccc(C2(C)NC(=O)N(CC(=O)Nc3c(C)n(C)n(-c4ccccc4)c3=O)C2=O)cc1 (stereo not given),-1.7,-2,3,0.3,-2,4%,0.3,8,8,0.4
O=C(Cn1c(=O)oc2ccccc21)NCCc1ccccc1Cl,-1.8,-4,-4,0.2,-9,/,0.5,-4,3,-3.8
Cc1cc(C)cc(NC(=S)N2CCN(S(C)(=O)=O)CC2)c1,4.8,-4,5,0.7,-7,-2%,1.5,6,1,-0.1
O=C(NN=C1CCN(Cc2ccccc2)CC1)c1cc2ccccc2cc1O,-0.8,-1,2,-0.3,-12,31%,0.5,17,31,14
Nc1c(C(=O)Nc2ccc(Br)cc2)sc2nc(-c3ccco3)ccc12,-13,2,-5,-0.2,-32,5%,/,/,/,/
COc1ccc(Cl)cc1NC(=O)CN1CCN(S(=O)(=O)N2CCOCC2)CC1,-4.8,8,-12,0.1,7,/,1.3,1,0,-2.1
N=c1ccn(Cc2ccc([N+](=O)[O-])cc2)cc1,4.5,-1,1,1.5,3,/,-0.2,/,/,/

# Taken from above:
# RanGTP-Imp inh, O=S(=O)(NCCN1CCOCC1)c1ccc(Oc2ccccc2Cl)cc1 = 0.3
# Ecoli rRNA inh, COc1ccc(Cl)cc1NC(=O)CN1CCN(S(=O)(=O)N2CCOCC2)CC1 = 1

# Additional results
SMILES,RanGTP-Imp inh,Beta apoptosis,Calb FLC,Bfl-1 A1 inh,T cruzi repl,Vif TR-FRET,MLL AF4-AF9 inh,Ecoli rRNA inh,Ecoli rRNA inh OD600,Ecoli rRNA inh RFP
COc1ccc(CNS(=O)(=O)CCNC(=O)c2ccc(OC)cc2)cc1,4.4,-6,0,-0.4,5,6%,-0.6,13,9,1.9
CC(C)(O)C#Cc1ccc(CN2CCN(C3CCCCC3)C(CCO)C2)s1 (stereo not given),-0.4,-1,-14,-0.5,18,18%,-13,12,11,-0.6
O=C1c2cccc3cccc(c23)C(=O)N1CCN1CCN(C(=S)Nc2ccc(Cl)cc2)CC1,2.6,8,12,-0.3,29,?,-3.9,-16,-10,-15
COc1ccc(-c2noc(=O)n2Cc2cc(C)ccc2C)cc1,0.1,1,-7,2.3,-10,-8%,-2.8,-36,-50,-2.6
CCN(CC)CCn1nc(C)nc1-c1ccccc1O,?,-6,-13,-0.1,27,2%,/,/,/,/
O=C(CCc1nc(-c2ccccc2)no1)NCCc1ccccc1,3.6,-1,-38,0.0,5,0%,/,/,/,/
Cc1nc2c(C)cccc2cc1C(=O)N/N=C/c1ccc(O)cc1,-0.3,/,-3,-0.1,5,-7%,1.6,-18,-1,2.7
O=c1cnnc(Nc2ccc(Nc3ccccc3)cc2)[nH]1,-2.7,-4,6,-0.6,-15,-1%,6.1,-8,0,-1.7
O=C(N/N=C/c1ccc(O)c(O)c1)C1CC1,0.2,/,3,1.9,/,/,0.3,-2,5,-2.9
COc1cc2c(cc1OC)C(C)N(C(=O)c1cc(C)on1)CC2 (stereo not given),-0.4,18,15,1.0,-1,4%,-12,10,13,0.7
Cc1ccccc1NC(=O)C(Cl)=C(Cl)Cl,-2.3,-12,18,0.1,-6,5%,-2.0,2,5,-0.2
Cn1c(SCc2ccon2)nc2ccccc2c1=O,-1.0,-5,0,-0.7,28,3%,/,/,/,/
Cn1c(=O)c(=O)n(C)c2cc(S(=O)(=O)N3CCOc4ccccc43)ccc21,-1.6,5,-9,0.5,15,/,1.6,4,8,-1.6
CCOC(=O)c1cccc(NC(=O)C(C)N2C(=O)c3ccccc3C2=O)c1 (stereo not given),-5.3,-8,1,-0.6,-2,3%,/,/,/,/
Cc1ccc(NCc2ccccc2O)cc1C,4.0,-10,13,-4.0,-9,6%,4.1,-16,-21,-4.5
C=CCNC(=S)Nc1ccc(OC(F)F)c(Cl)c1,?,2,-5,0.3,-4,17%,0.1,-30,-28,-2.3
CCOc1ccc(-c2nc(CSc3nnc(N)s3)cs2)cc1,3.1,-1,6,0.2,6,-2%,/,/,/,/
CCCCN(C(=S)Nc1cccc(SC)c1)C1CCN(C(C)=O)CC1,-0.8,-12,1,-0.9,-13,/,4.2,1,-5,-2.8
CCOC(=O)N1CCN(C(=O)/C=C/c2cccc([N+](=O)[O-])c2)CC1,-1.0,-2,-3,1.8,-7,3%,-0.1,3,5,0.9
COc1ccc(CCNC(=O)C(=O)NCC2CCCO2)cc1 (stereo not given),1.2,-5,-14,1.5,-2,7%,/,/,/,/
O=C1CC(NS(=O)(=O)c2cccnc2)CN1c1ccccc1 (stereo not given),2.7,2,2,1.0,-7,/,-3.0,7,12,0.8
Cc1ccccc1OCC(=O)NNC(=S)NC(=O)c1ccccc1[N+](=O)[O-],-2.7,-3,47,-2.0,-11,4%,2.9,-16,-6,4.9
N#C/C(=C\c1coc2ccc(O)cc2c1=O)C(=O)Nc1nc2ccccc2s1,-83,12,13,0.1,1,?,-2.0,0,5,8.7

# Screens (PubChem)
